AID504770: growth inhibitors of E. coli YBA685 in a screen for V. cholerae RctB (chromosome II replication) inhibitors | E. coli YBA685 rctB-dependent plasmid, OD600 growth, 3 h; active compounds read low | z-score (concentration not given with the values) | 0.27% of 130,000 active | AID 504770;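 active = z-score under -2 on both plates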;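 also: wells of about 30 µL received 100 nL stock; score is relative to mean and SD of the test wells; the first replicate is given; strong numbers were not always called active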
CapD inh: blocks the Bacillus anthracis CapD enzyme. purified CapD enzyme, fluorescence intensity read-out; active compounds read low; some hits fall short of the stated cut. z-score (concentration not given with the values). 0.23% of 140,000 active. AID 492967;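 active = z-score under -4 in either of two replicates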;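 also: stock transfer was 100 nL into about 40 µL; score is relative to mean and spread of the plate; one replicate is shown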
* = called active by the depositor; / = not tested or not shown; & = joins results of further samples.

Results follow in this order: AID504770	CapD inh
> COc1ccc(-n2cccc2/C=C2/SC(=Nc3ccc(F)cc3)NC2=O)cc1
 : /	-0.065
> Cc1c(C#N)c(N)n(CCCn2cccn2)c1C
 : 0.1	4.9
> CCOC(=O)C1=C(N)N(c2ccc(Cl)cc2)C2=C(C(=O)CCC2)C1c1cc(OC)c(OC)c(OC)c1 (centres undefined)
 : /	-0.62
> CN(Cc1ccccc1)C(=O)COc1cc(=O)n(C)c2ccccc12
 : -0.7	0.8
> CC(C)c1ccc(NCC(O)COc2ccc(Cl)c(Cl)c2)cc1 (centres undefined)
 : 0.4	-0.71
> Cc1ccc(C(CNS(=O)(=O)c2ccc(F)cc2C)N2CCN(C)CC2)cc1 (centres undefined)
 : -0.15	/
> Cc1c(OCc2cc(C(F)(F)F)cc(C(F)(F)F)c2)ccc2c1OC(C)(C)CC2=O
 : /	0.085
> Cc1ccc(-c2csc(-c3cc4cc(Cl)ccc4oc3=O)n2)cc1C
 : /	0.39
> CC(C)c1nc(C#N)c(NCc2cccnc2)o1
 : 1.1	/
> CC1=Nc2c(c(C)nn2-c2ccccc2)C(C(F)(F)F)(C(F)(F)F)O1
 : -0.7	-0.15
> CCn1c2ccccc2c2cc(CN3CCC(NC(=O)OCc4ccc(C(C)C)cc4)C3)ccc21 (centres undefined)
 : /	4.7
> CSc1ccccc1NC(=O)C1Cc2ccccc2O1 (centres undefined)
 : -0.3	/
> CCn1c(=O)cc(C(=O)OC)sc1=Nc1ccc(F)c(F)c1
 : -1.6	0.77
> CC(C)c1ccc(C(N)CC(=O)O)cc1 (centres undefined)
 : 0.25	-0.64
> CCN(C(=O)c1cccc(Cl)c1)C1CCCCC1
 : -0.7	/

The list goes on, starting with the last three of the part before.
Results follow in this order: AID504770	CapD inh
> CCn1c(=O)cc(C(=O)OC)sc1=Nc1ccc(F)c(F)c1
 : -1.6	0.77
> CC(C)c1ccc(C(N)CC(=O)O)cc1 (centres undefined)
 : 0.25	-0.64
> CCN(C(=O)c1cccc(Cl)c1)C1CCCCC1
 : -0.7	/
> O=C(CSc1cn(Cc2ccccc2)c2ccccc12)NCc1ccco1
 : 0.75	/
> COc1ccc(C2C(C#N)=C(N)N(c3cccc(C)c3)C3=C2C(=O)CC(C)(C)C3)cc1OC (centres undefined)
 : /	0.54
> CC(=O)Nc1cc2cc(N)ccc2oc1=O
 : 1.7	-0.45
> O=C(/C=C/c1ccc2c(c1)OCO2)Nc1ncc(S(=O)(=O)c2ccc([N+](=O)[O-])cc2)s1
 : /	-0.45
> Cn1c(C(=O)NCCN2CCOCC2)cc2c(=O)n(C)c3ccccc3c21
 : -0.05	3.8
> O=C(O)C(Cc1c[nH]c2ccccc12)NC(=O)C12CC3CC(CC(C3)C1)C2 (centres undefined)
 : 1.4	-0.14
> N#Cc1c(Cl)cccc1Oc1ccc(S(=O)(=O)NCC2COc3ccccc3O2)cc1 (centres undefined)
 : /	-0.055
> CN(C(=O)C1CC1)c1nnc(-c2ccc(F)cc2)s1
 : 0.2	/
> COc1cc(C(=O)Oc2cccc(C)c2C)cc(OC)c1OC
 : -0.8	-0.075
> CC1(C)CN2C(=S)N(c3ccccc3)C(c3ccccc3)N2C1 (centres undefined)
 : 0.55	-0.77
> Cc1ccc(Nc2nc3nonc3nc2NC2C3CC4CC(C3)CC2C4)cc1 (centres undefined)
 : /	-1.3
> CCN1CCC(N(Cc2ccco2)C(=O)NC2CCCC2)CC1
 : 1.6	0.24
> Cc1occc1C(=O)Oc1ccc(C(=O)c2ccccc2)cc1
 : 0.8	/
> CC(=O)NC1C(Sc2ccccc2)OC(CO)C(O)C1O (centres undefined)
 : -0.8	/
> COc1ccccc1-c1noc(CCC(=O)Nc2cc(C(F)(F)F)ccc2Cl)n1
 : -0.2	0.035
> O=c1oc2ccccc2c(O)c1C=Nc1ccccc1
 : -0.05	0.91
> Cn1cc(C(=O)O)c(=O)c2ccccc21
 : -1.1	/
> CCOC(=O)Cc1nn[nH]n1
 : -1.4	-0.14&-0.24
> O=C(NCC1COc2ccccc2O1)C1CCCN(C(=O)c2ccc(Cl)cc2)C1 (centres undefined)
 : -0.9	/
> CCOC(=O)c1c(NC(=S)N2CCOCC2)sc(C)c1C
 : -0.25	-0.48
> CCc1ccc(-c2nc(CSCC(=O)NCCc3ccccc3)c(C)o2)cc1
 : -0.5	0.21
> O=C(Cc1cccc2ccccc12)NCC1CCCO1 (centres undefined)
 : 0.6	0.62
> C=CCNc1nc(C2(C)CC3(CC(COCC(C)C)OC3=O)C(=O)O2)cs1 (centres undefined)
 : /	-0.31
> CCOC(=O)CSc1nc2sc(C(=O)OCC)c(C)c2c(=O)n1CC1CCCO1 (centres undefined)
 : /	-1.2
> CCCCN=Cc1c(O)n(Cc2ccccc2)c(=O)[nH]c1=O
 : -0.35	0.55
> CCCC1(O)C(C)C(c2ccccc2)NC(c2ccccc2)C1C (centres undefined)
 : /	0.055
> CCOc1ncnc2c1sc1nc3c(cc12)COC(C)(C)C3
 : -0.9	0.96
> CCn1c(=O)c2cc(S(N)(=O)=O)ccc2n(CC)c1=O
 : -0.9	3.2
> O=[N+]([O-])c1ccc(CSc2ncc(-c3ccc(Cl)cc3)cn2)cc1
 : /	-0.035
> COc1cc(C=C2C(=O)N(C)C(=O)N(C)C2=O)ccc1OCc1ccc(Cl)cc1
 : /	0.28
> COc1cccc(CN2CCC(NC(=O)CCn3cc([N+](=O)[O-])nc3C)C2)c1[N+](=O)[O-] (centres undefined)
 : /	-0.6
> Cc1nc(SCc2noc(CSc3nc(C)c(C)c(C)c3C#N)n2)c(C#N)c(C)c1C
 : 2.4	-0.12
> CC(C)(C)NS(=O)(=O)c1cc(C(=O)Nc2nccs2)ccc1Cl
 : -0.35	/
> CC(=O)Nc1ccc(NC(=O)c2ccc(NC(C)=O)cc2)cc1
 : 1.1	/
> Cc1ccc(S(=O)(=O)N=P(Oc2ccccc2)(c2ccc(C)o2)C(C)(C)C)cc1 (centres undefined)
 : 1.5	/
> Fc1ccc(NC2=NC3(CCCCC3)Cc3ccccc32)cc1F
 : /	-0.29
> COc1cccc(N2C(=O)CC(n3nc(Nc4cccc(C)c4)sc3=S)C2=O)c1 (centres undefined)
 : 1.2	/
> O=c1oc2ccccc2n1CCc1nnc(-c2cccc(Cl)c2)o1
 : 0.7	0.28
> COC(=O)CNS(=O)(=O)c1ccsc1C(=O)OC
 : -0.35	0.69
> Cc1ccc(NC(=O)C23CC4CC(CC(C4)C2)C3)cc1
 : -0.5	-0.59
> Cc1csc(=O)n1CCC(=O)OCc1cc2ccccc2nc1Cl
 : 0.7	/
> Cc1cc(=O)c2ccccc2n1CC(N)=O
 : -0.25	/
> COc1cc2c(cc1OC)C(COc1ccc([N+](=O)[O-])cc1)N(C(=O)c1cc3ccccc3oc1=O)CC2 (centres undefined)
 : /	-0.22
> NC(=O)C1(S(=O)(=O)c2ccccc2)CCCCC1
 : -0.7	/
> Cc1cc(=O)n(Cc2ccccc2)[nH]1
 : 0.9	-0.32
> CCC(C)c1ccc(NC(=O)C2CC=CCC2C(=O)O)cc1 (centres undefined)
 : 1.4	-0.32
> COc1cc(NC(=S)N(C)C)c(OC)cc1Cl
 : -0.5	-0.07
> COc1ccc(N2C(=O)c3ccc(Oc4ccccc4)cc3C2=O)cc1
 : -0.55	-0.68
> CN(C)S(=O)(=O)c1cc(S(=O)(=O)c2ccc(Cl)c(S(=O)(=O)N(C)C)c2)ccc1Cl
 : 0.1	/
> CNC(=O)c1cc(S(=O)(=O)N2CCCC2)ccc1Cl
 : 0.35	1.1
> Cc1ccc2nc(Cn3cnc4ccccc43)cc(=O)n2c1
 : 0.3	/
> O=C1NC(=O)N2CSCC12 (centres undefined)
 : /	0.07
> Cc1ccc(OCC(O)Cn2cnc3ccccc32)cc1 (centres undefined)
 : 1.6	-0.29
> N#Cc1c(N)oc(-c2ccco2)c1-c1ccco1
 : -0.45	86&82
> CCCN(CCC)C(=O)Cn1c(SCc2cccc(C)c2)nc2ccncc21
 : 0.05	-1
> CCc1ccc2nc3n[nH]c(N)c3cc2c1
 : -0.35	/
> O=C(Nc1nc2ccccc2s1)c1cc(Cl)sc1Cl
 : -0.35	-0.49
> COc1ccc(Nc2nnc(C)c3ccccc23)cc1C(N)=O
 : /	-0.24
> C=CCN1C/C(=c2\sc3nc(-c4ccccc4OC(C)=O)nn3c2=O)c2ccccc21
 : -0.4	/
> Cc1c(C(=O)NCCN2CCOCC2)sc2ncnc(N3CCN(c4ccccc4)CC3)c12
 : /	0.58

The list continues.
Results follow in this order: AID504770	CapD inh
> CCN1CCN(C(=O)c2ccc(Cl)nc2)CC1
 : -0.15	0.42
> Cc1ccc2oc(=O)c3cc(C(=O)NCCCN4CCN(C)CC4)sc3c2c1
 : -1.1	24
> Cc1cccc(CCOC(=O)NC(Cc2ccccc2)C(=O)Nc2ccc([N+](=O)[O-])cc2)c1 (centres undefined)
 : /	-1.2
> CCCOC(=S)NC1OCC(O)C(O)C1O (centres undefined)
 : -0.85	0.1
> Cc1ccc(-c2c3c(=O)n(C)c(=O)n(C)c3cn2C)cc1
 : -0.8	-0.91
> COc1ccc(NC(=O)c2cc(-c3ccc(C)o3)nc3ccccc23)cc1OC
 : -0.7	0.95
> COc1cc(OC)nc(C2CCN(C(=O)c3ccc(C(F)(F)F)cc3)CC2)n1
 : /	-0.43
> CN(C)S(=O)(=O)c1cccc(C(=O)NCC(=O)NC2CCN(Cc3ccccc3)CC2)c1
 : 1.4	/
> CCS(=O)(=O)N1CCN(S(=O)(=O)c2ccc(Cl)cc2)CC1
 : -1.4	/
> CCOc1ccc2nc(NC(NC(=O)CC)(C(F)(F)F)C(F)(F)F)sc2c1
 : -0.4	0.17
> O=C(OCCCCCc1ccccc1)N1CCN(CCC2CCCCC2)CC1
 : /	-0.3
> O=C(CCCOc1ccccc1)NC1CCCCC1
 : -0.65	-0.22
> CC(C)(CNS(=O)(=O)c1ccc(Cl)cc1)OCc1ccccc1
 : -0.85	0.16
> Cc1n[nH]c(C)c1Cc1ccc(C(=O)O)o1
 : 0	/
> CCOc1ccc2sc(C=NCCCOC)c(O)c2c1
 : /	-2.1
> CCCCCOC(=O)C1=C(C)N(C)C(=O)NC1c1cc2c(cc1Br)OCO2 (centres undefined)
 : /	-0.12
> CCOc1ccc(CN(C)C(C)C(=O)NCc2ccccc2)cc1 (centres undefined)
 : -0.65	/
> O=C(NCCSc1ccccc1)c1ccc(Br)cc1
 : -0.3	-0.27
> CC(C)NCC(O)c1ccc(O)c(O)c1 (centres undefined)
 : 0.2	-0.11&-0.61&-0.02
> Cc1ccc(Cc2cnc(NC(=O)/C(C#N)=C\c3ccc(-c4ccc(F)cc4)o3)s2)cc1
 : /	0.83
> O=S(=O)(c1ccc2oc3ccccc3c2c1)N1CCOCC1
 : -0.55	0.21
> CSc1sc(=O)sc1SC
 : -0.6	/
> Oc1c(I)cc2oc3c(c2c1C=NCc1ccncc1)CCCC3
 : 0.15	/
> CC1CN(C)C(C)C/C1=N/O (centres undefined)
 : 1.6	-0.15
> Cc1ccccc1-n1c(C)nnc1SCC(=O)N(Cc1ccccc1)C(C)C
 : -0.25	/
> O=C1CC(c2ccccc2)CC(=O)C1CS(=O)(=O)c1ccccc1 (centres undefined)
 : -1.8	-0.37
> O=C(OCc1nc(-c2ccc(Cl)cc2)cs1)N1CCN(c2ccccn2)CC1
 : /	0.41
> COc1ccc(CCN(C)C(=O)CSc2nncs2)cc1OC
 : 2	/
> c1csc(-c2nc(-c3c[nH]c4ccccc34)cs2)c1
 : 1.4	/
> C(C#CCOc1ccccc1)#CCOc1ccccc1
 : /	0.46
> Nc1ccc2c(C(F)(F)F)cc(C(F)(F)F)nc2n1
 : 0.45	72
> O=C(CC(=O)c1ccccc1O)c1cccs1
 : /	0.22
> CCOc1ccc(Br)cc1C(=O)N/N=C/c1ccco1
 : -0.2	-0.66
> COc1ccc(C2NCCc3c2[nH]c2ccccc32)cc1CN1CCc2cc(OC)c(OC)cc2C1C (centres undefined)
 : /	0.59
> CCOc1ccccc1C1C(C#N)=C(SCC(=O)Nc2ccc(C(C)=O)cc2)NC2=C1C(=O)CCC2 (centres undefined)
 : /	4.6
> COc1ccc(C2=NN(C(=O)CSc3ccccc3)C(c3ccco3)C2)cc1 (centres undefined)
 : 0.6	/
> O=S(=O)(c1ccc(-c2ccccn2)s1)N1CCC2(CC1)OCCO2
 : -0.55	0.93
> Nc1ccc(Sc2nc3ccccc3s2)cc1
 : -0.05	/
> Cc1ccccc1NC(NC(=O)c1ccco1)C(=O)c1ccccc1 (centres undefined)
 : -0.2	72
> Cc1ccc(S(=O)(=O)N2CCCC(C(=O)N(C)c3ccccc3)C2)cc1 (centres undefined)
 : -0.9	-0.15
> Cc1cc2ccccc2c(=O)n1CC(=O)Nc1ccc(C(C)C)cc1
 : /	0.32
> CC(OC(=O)C1COc2ccccc2O1)C(=O)N1CCc2ccccc21 (centres undefined)
 : -0.2	/
> Cc1cc2c(cc1[N+](=O)[O-])C(=O)c1cc3ccccc3nc1-2
 : /	-0.28
> Cc1cccc(NC(=O)CN2N=C(c3ccccc3)CCC2=O)c1C
 : -0.35	0.26
> COc1ccc2c(c1)c1nc(SC)n(CCO)c(=O)c1n2C
 : 0.3	19
> CC(=O)Nc1cc(C)nn1-c1nc2ccccc2n1C
 : 0.05	1.1
> CC1=NNC(=O)C1Cc1ccc(F)cc1 (centres undefined)
 : /	-0.13
> COc1cc(OC)cc(-c2nc3ccccc3c(=O)n2NC(=O)c2ccc(OC)c([N+](=O)[O-])c2)c1
 : /	-0.26
> CCc1ccc2c(CN3CCN(S(=O)(=O)c4ccc5c(c4)OCCO5)CC3)cc(=O)oc2c1
 : -1.1	/
> CCc1nnc(NS(=O)(=O)c2ccc(OC(F)(F)F)cc2)s1
 : 0.25	-0.2
> C=CCn1cnnc1SC(C)C(=O)N(CC)c1cccc2ccccc12 (centres undefined)
 : -0.45	/
> CC1(C)CC(O)(CNCc2ccc3c(c2)OCO3)CCO1 (centres undefined)
 : 1.1	-0.06
> COc1ccc(/C=N/OCc2nc3c4c(-c5ccccc5)c(-c5ccccc5)oc4ncn3n2)cc1OC
 : /	3

Source: PubChem BioAssay

Not all compounds are listed; the hit share may differ from the screen's.
